# Screens (PubChem BioAssay)
# Cruzain Triton – qHTS Assay for Promiscuous and Specific Inhibitors of Cruzain (with detergent). Cruzipain (Trypanosoma cruzi), P25779. purified cruzain, Z-FR-AMC fluorescence, 0.01% Triton. Potency, µM, without a hit: max response, negative = inhibition, hits mostly inhibitors. actives 0.43% (n = 200,000);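 also: plate controls were neutral wells for no effect and buffer without enzyme for full effect; nearly all actives have a fitted effect of over 40% in size; top concentration of the series not given in the record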
# Target sequence (P25779 123-467 limits assumed): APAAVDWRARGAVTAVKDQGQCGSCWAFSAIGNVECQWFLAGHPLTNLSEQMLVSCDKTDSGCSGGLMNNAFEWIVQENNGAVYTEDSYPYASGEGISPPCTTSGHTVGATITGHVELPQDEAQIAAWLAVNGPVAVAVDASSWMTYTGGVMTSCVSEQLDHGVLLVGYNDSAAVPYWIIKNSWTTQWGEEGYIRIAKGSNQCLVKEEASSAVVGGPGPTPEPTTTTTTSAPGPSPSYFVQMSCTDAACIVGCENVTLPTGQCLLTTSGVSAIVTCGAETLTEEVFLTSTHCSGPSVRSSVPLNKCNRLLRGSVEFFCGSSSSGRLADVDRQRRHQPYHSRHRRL
#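 In this qHTS format, compounds are incubated with 1.5 nM cruzain for 15 min at room temperature before 2 uM Z-FR-AMC is added. Release of AMC is followed at 360/450 nm, and progress is taken as the 60 s fluorescence difference.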
# RE007 growth inh – qHTS Assay for Inhibitors of the HIV-1 protein Vpr; S. pombe RE007 Vpr strain, BacTiter-Glo ATP luminescence, 24 h; control for the full effect not named in the record; actives 0.21% (n = 360,000); Potency, µM (titrated, usually from 92.2 µM), for inactives: at the highest dose activity change, negative = less growth; active = well fitted falling curve with a large enough effect; inconclusive = small, poorly fitted or top-dose-only effect; inactive = no such curve, though single readings can be large or run the other way;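 also: % is scaled to controls: 0 for no effect and ±100 for the full control effect; nearly all actives have a fitted effect of over 50% in size; the assay follows cell death caused by Vpr and the record does not say whether a fall means rescue or toxicity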
#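 Fission yeast strain RE007, carrying one chromosomally integrated HIV-1 vpr copy, was seeded at OD 0.01 in PMG+AL medium with 23 nL pinned compound. After 24 h at 30 °C and 99% humidity, viability was read by BacTiter-Glo luminescence.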
# LASV entry inh – qHTS for Inhibitors of binding or entry into cells for Lassa Virus; Lassa virus pseudotype entry inhibition, cell reporter; control for the full effect not named in the record; Potency, µM (doses to about 37.9 µM), inactives show at the highest dose activity change, negative = inhibition, hits mostly inhibitors; actives 1.2% (n = 300,000); active means well fitted inhibition curve with a large enough effect; inconclusive means small, poorly fitted or top-dose-only effect, or effect the other way; inactive means flat fitted curve, though single readings scatter; tested in HEK293 cells; also: % is scaled to controls: 0 for no effect and ±100 for the full control effect; nearly all actives have a fitted effect of over 50% in size; luciferase read-out
# Cruzain inh noDet – qHTS Assay for Promiscuous and Specific Inhibitors of Cruzain (without detergent) | purified cruzain, Z-FR-AMC fluorescence, no detergent | actives 2.3% (n = 200,000) | Potency, µM, without a hit: max response, negative = inhibition, actives largely listed as inhibitors | Cruzipain (Trypanosoma cruzi), P25779 | AID 1476, 2009;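 also: plate controls were enzyme without inhibitor for no effect and buffer without enzyme for full effect; nearly all actives have a fitted effect of over 40% in size; top concentration of the series not given in the record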
#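 Detergent-free condition (0.00005% Triton X-100) in acetate buffer pH 5.5 with DTT. 1.5 nM enzyme and compound were pre-mixed 15 min, then 2 uM Z-FR-AMC substrate added; reaction progress from fluorescence change between first and third reads (60 s).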
# NS1 inh – qHTS Assay for Inhibitors of Influenza NS1 Protein Function; actives 0.4% (n = 270,000); Potency, µM (series often up to 46.1 µM), for inactives: at the highest dose activity, positive = more growth; AID 2326, 2010; S. cerevisiae slowed by influenza A NS1, growth recovery by OD600; active means well fitted rising curve with a large enough effect; inconclusive means small, poorly fitted or top-dose-only effect; inactive means no such curve, though single readings can be large or run the other way; also: nearly all actives have a fitted effect of over 50% in size
#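 Compounds were scored for reversing the slow growth caused by influenza A NS1 in S. cerevisiae, measured by optical density at 600 nm. Assay medium contained 2% galactose at pH 6.0; NS1-free yeast of the same strain were the positive control.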
# MARV entry inh – qHTS for inhibitors of binding or entry into cells for Marburg Virus; Marburg virus pseudotyped entry inhibition, cell reporter; control for the full effect not named in the record; about a third of the inactives were read at about 46 µM; Potency, µM (series often up to 37.8 µM), for inactives: at the highest dose activity change, negative = inhibition, actives largely listed as inhibitors; actives 1.8% (n = 300,000); AID 540276, 2011; active = well fitted inhibition curve with a large enough effect; inconclusive = small, poorly fitted or top-dose-only effect, or effect the other way; inactive = flat fitted curve, though single readings scatter; tested in HEK293 cells; about a fifth of its hits are not listed in these tables; also: % is scaled to controls: 0 for no effect and ±100 for the full control effect; luciferase read-out
# SARS PLpro yeast – qHTS of Yeast-based Assay for SARS-CoV PLP; S. cerevisiae expressing SARS-CoV PLpro, growth rescue; control for the full effect not named in the record; Potency, µM (series often up to 32.9 µM), for the others: at the top dose activity, positive = growth rescue; actives 0.19% (n = 330,000); active means well fitted rising curve with a large enough effect; inconclusive means small, poorly fitted or top-dose-only effect; inactive means no such curve, though single readings can be large or run the other way; also: 0% is about no effect; nearly all actives have a fitted effect of over 55% in size; growth read by luminescence after 48 h
# 2A StopGo – High Throughput Screening for Foot and Mouth Disease Virus Antivirals; Potency, µM (titrated, usually from 57.9 µM), inactives show at the top dose signal change, negative = less light; human cells with a luciferase reporter of 2A StopGo recoding; control for the full effect not named in the record; actives 1.2% (n = 410,000); active = well fitted falling curve with a large enough effect; inconclusive = small, poorly fitted or top-dose-only effect; inactive = no such curve, though single readings can be large or run the other way; tested in HEK293T cells; also: % is scaled to controls: 0 for no effect and ±100 for the full control effect; nearly all actives have a fitted effect of over 45% in size; luciferase light after 4 h
# * marks the source's active call; other numbers are inactive results; u = inconclusive; x = not tested or not shown; & = joins results of further samples; [ ] = dose if it differs, or a comment. Unless noted, calls follow the shape of the dose curve; as a rule, active = well fitted curve in the direction sought with a large enough effect; inconclusive = small, poorly fitted or top-dose-only effect, or another doubt; inactive = no such curve, though single readings can be large; an effect the other way counts as inactive or inconclusive. Potency is read from the fitted curve at half-maximal effect.
# Below each SMILES – Cruzain Triton	RE007 growth inh	LASV entry inh	Cruzain inh noDet	NS1 inh	MARV entry inh	SARS PLpro yeast	2A StopGo
CC(=O)c1cnc2nc(C(F)(F)F)nn2c1C
  3.7%	19%	19%	17%	u	18%	1%	-16%
COCCNC(=O)CN1C(=O)CSc2ncccc21
  -1.6%	10%	x	-18%	3%	x	3%	-25%
COc1ccc(NC(=O)CCCSc2ccccc2)cc1S(N)(=O)=O
  x	6%	-15%	x	20%	1%[46.1 µM]	-15%	27%
COC(=O)C(CCSC)NC(=O)CNS(=O)(=O)c1ccc(Cl)cc1 (stereo not drawn)
  6.9%	3%	0%	3%	-5%	5%	16%	-3%
Nn1c(SCc2cn3ccccc3n2)nnc1-c1ccncc1
  x	-8%	5%	x	x	9%[46.1 µM]	0%	-10%
CS(=O)(=O)N1CCCC(C(=O)Nc2ccc3c(c2)OCCO3)C1 (stereo not drawn)
  x	6%	-5%[46.1 µM]	x	x	-22%[46.1 µM]	3%	17%
COc1ccc(/C=C/S(=O)(=O)NCc2ccccc2)cc1OC
  x	12%	u	x	x	-23%[46.1 µM]	-2%	28%
O=C(NCC1CCCO1)C1CCCN(S(=O)(=O)c2cccc3nsnc23)C1 (stereo not drawn)
  -3.3%	6%	3%	-14%	16%	11%	5%	-11%
O=C(NCc1ccccc1Cl)c1cc(C(=O)C2CC2)c[nH]1
  x	5%	-21%[46.1 µM]	x	8%	-14%[46.1 µM]	4%	-6%
CC(C)(C)c1cc(CCC(=O)N2CCNCC2)c(C(C)(C)C)cc1O
  1.0%	15%	-24%	-2%	2%	15µM*	-1%	-17%
CC(/C=N/NC(=O)c1ccncc1)=C\c1ccc(C(C)C)cc1
  -4.8%	-5%	-24%	-1%	-24%	0%	3%	-28%
c1ccc(NC2=NCCN2CCC2CCCCC2)cc1
  x	-8%	x	x	-21%	x	-6%	-14%
COc1cccc(CNS(=O)(=O)c2cc(CN3C(=O)c4cccnc4C3=O)ccc2OC)c1
  x	-19%	x	x	-8%	x	-1%	5%
Cc1cc(C)n2nc(C(=O)NCc3ccco3)nc2n1
  x	-14%	24%	x	-1%	7%	x	-24%
Cc1cccc(N2CCN(C(=O)c3nn(C)c4c3CS(=O)(=O)c3ccccc3-4)CC2)c1C
  -1.7%	9%	-23%[46.1 µM]	-15%	3%	x	-5%	u
Cc1ccccc1C(=O)N1CCC(N2CCN(Cc3ccc(F)cc3)C(=O)C2=O)CC1
  -0.4%	x	u	-9%	x	x	x	-11%
COc1cccc(-n2c(-c3ccco3)nc3c(cnn3-c3ccc(C)cc3)c2=O)c1
  -9.5%	x	u	-4%	x	-24%[46.1 µM]	x	u
COc1cc(/C=c2\sc3nc(-c4ccncc4)nn3c2=O)ccc1OC(C)=O
  -0.9%	x	x	u	-3%	x	22%	x
CCCn1nnnc1NCc1cccc(OC)c1
  x	u	0%	x	26%	-14%	1%	15%
O=C1Nc2ccccc2C(O)(C(=O)N2CCCCC2)N1c1ccccc1 (stereo not drawn)
  1.7%	10%	2%	-1%	6%	-14%&-14%	u	-21%
COc1cc(CN(C(=O)Nc2cccc(Cl)c2)c2ccccn2)cc(OC)c1OC
  0.1%	x	12%[46.1 µM]	-3%	x	3%[46.1 µM]	x	12%
Cc1ccc(/C=N/Nc2cc(C)nc(N3CCOCC3)n2)cc1
  x	-7%	14%	x	3%	u	0%	-11%
Cc1ccc(CN2CCN(/N=C\c3cccc([N+](=O)[O-])c3)CC2)cc1
  x	5%	15%	x	-2%	28%[46.1 µM]	0%	u
Cc1cccc2cc(/C=N/Nc3ccc(C(=O)O)cc3)c(Cl)nc12
  x	8%	x	x	0%	10%	1%	22%
CCN(CC(=O)Nc1ccc(NC(C)=O)cc1)C(=O)C1CC(=O)N(CCc2ccc(OC)c(OC)c2)C1 (stereo not drawn)
  x	-19%	8%	x	x	1%	5%	-2%
Cc1ccnc(NC(=O)Cn2ccc([N+](=O)[O-])n2)c1
  1.1%	-4%	3%	-5%	6%	12%	-6%	46%[activator]
C=CCC(=O)NC1CC(C)(C)Cc2c1cnn2-c1ccc(C)cc1 (stereo not drawn)
  x	-7%	x	x	-12%	x	0%	11%
Cc1sc2ncnc(NCCN3CCOCC3)c2c1C
  7.9%	1%	-29%	3%	-2%	u	4%	u
Cc1ccc(-c2cc(C(=O)N3CCCC3)c3ccccc3n2)s1
  x	-8%	-1%	x	-35%	4%	-5%	23%
Cc1ccccc1N1CCN(Cc2ccc([N+](=O)[O-])o2)CC1
  x	-22%	1%[46.1 µM]	x	-5%	u	-5%	-13%
Cc1cccc(NC(=O)Cn2c(=O)n(Cc3ccc4c(c3)OCO4)c(=O)c3ccccc32)c1
  -6.0%	x	-2%[46.1 µM]	20µM*	x	6%[46.1 µM]	x	-16%
O=C1C=C(NCc2ccccc2)C2(CCCCC2)O1
  3.0%	16%	4%	-9%	-3%	-6%	2%	-2%
Cc1ccc(C)c(OC(=O)CN2C(=O)c3ccccc3C2=O)c1
  x	14%	9%	x	-18%	18%	-6%	-14%
O=C(NC(=S)N1CCOCC1)c1ccc([N+](=O)[O-])cc1
  -3.5%	5%	0%	-17%	6%	-1%	27%	3%
COc1ccc(C(=O)CN2C(=O)NC3(CCc4ccccc43)C2=O)c(OC)c1 (stereo not drawn)
  x	-1%	1%	x	x	u	x	12%
Cn1cccc1C1C(C#N)=C(N)OC2=C1C(=O)CC(C)(C)C2 (stereo not drawn)
  x	-14%	10%[46.1 µM]	x	6%	u	0%	3%
O=C(CCOc1ccccc1)Nc1nnc(-c2ccc3c(c2)OCCO3)o1
  x	23%	16%	x	x	-2%[46.1 µM]	-2%	0%
Cc1cc(C)n(C(=O)c2ccncc2)n1
  5.6%	x	x	3%	-8%	4%	0%	x
CCN(CC)S(=O)(=O)c1cccc(NC(=O)c2ccc(Br)cc2)c1
  x	1%	-26%	x	x	-46%[46.1 µM]	0%	25µM*
CC(=O)N(Cc1ccco1)C1(C(=O)NC2CCCCC2)CCCCC1
  6.7%	0%	18%	8%	5%	-18%	-6%	-4%
Cc1c(NC(=O)c2cc(-c3cccs3)on2)c(=O)n(-c2ccccc2)n1C
  3.7%	-10%	-10%	-4%	-38%	0%	-2%	25%
CCc1cccc2c1NC(=O)C21N2CCCC2C(C(=O)c2ccc3ccccc3c2)C12C(=O)Nc1ccccc12 (stereo not drawn)
  -7.5%	-1%	u	-27%	10%	10µM*	12%	-21%
CO/N=C(/CS(=O)(=O)c1ccc(Br)cc1)c1ccc(OC)cc1
  -3.6%	-9%	u	0%	-46%	u	-4%	-18%
CCC1=C(OC(=O)N(CC)CC)N2C(=O)OC(=NCc3ccccc3)[C@]2(C)[C@H]2C1=CC[C@H]1C(=O)NC(=O)[C@H]12
  -1.7%	0%	x	u	0%	x	1%	-7%
Cc1ccc(CNC(=O)C2CCCN(c3nnc(-n4c(C)ccc4C)s3)C2)cc1 (stereo not drawn)
  -9.7%	x	u	16%	x	-14%[46.1 µM]	x	-22%
O=C(Nc1ccc(NC(=O)c2ccc([N+](=O)[O-])cc2[N+](=O)[O-])cc1)c1ccco1
  x	1%	-11%	x	6%	-5%[46.1 µM]	1%	0%
O=C(O)C(CC1CCCCC1)N1CCS(=O)(=O)CC1 (stereo not drawn)
  x	10%	-8%[46.1 µM]	x	x	8%[46.1 µM]	-2%	-11%
N#Cc1c(NCCCO)nc(NCc2ccccc2)c2c1CCN(Cc1ccccc1)C2
  -1.8%	5%	u	3%	-74%	u	-21%	-10%
CCN(CC)CCn1c(=N)n(CCOc2ccccc2)c2ccccc21
  2.4%	-18%	21µM*	4%	6%	4.1µM*	2%	u
Cc1c(C)n(CCO)c2ncnc(Nc3ccc(F)cc3)c12
  x	9%	23%[46.1 µM]	x	3%	u	2%	38%[activator]
Cc1cc(C)c(NC(=O)CNC(=O)COC(=O)/C=C/c2cccs2)c(C)c1
  x	0%	29%	x	x	9%	u	0%
O=C(NCc1ccccc1)C(c1cccnc1)N(C(=O)c1ccccn1)c1ccc(F)cc1 (stereo not drawn)
  x	2%	14%[46.1 µM]	x	-7%	6%[46.1 µM]	1%	1%
CC(Sc1nnc(C2CCCCC2)n1N)C(=O)NCc1ccc2c(c1)OCO2 (stereo not drawn)
  1.2%	-13%	5%	5%	-21%	14%	0%	11%
O=C(O)c1ccc(NNC(=S)Nc2cc(C(F)(F)F)ccc2Cl)cc1
  x	-6%	11%[46.1 µM]	x	4%	0%[46.1 µM]	4%	u
O=C(c1cnccn1)N1CCc2ccccc2C1
  x	1%	11%	x	x	-2%[46.1 µM]	0%	17%
Cc1ccc(NC(=S)N(Cc2cccc(Br)c2)CC2CCC(C(=O)O)CC2)cc1 (stereo not drawn)
  x	-9%	-5%[46.1 µM]	x	x	-1%[46.1 µM]	-5%	-8%
Nc1cc(C(=O)OCC(=O)NCc2ccc(F)cc2)ccc1Cl
  3.8%	3%	12%[46.1 µM]	0%	u	-4%[46.1 µM]	15%	-14%
COCC(=O)N(CCc1ccc(OC)c(OC)c1)Cc1cc2cc(C)ccc2nc1Cl
  x	3%	u	x	x	-20%[46.1 µM]	0%	u
CC1=C(C(=O)Nc2ccccc2)C(c2ccccc2C)n2ncc(C(=O)Nc3ccccc3)c2N1 (stereo not drawn)
  -8.4%	x	10%[46.1 µM]	-9%	x	x	x	-15%
NS(=O)(=O)c1ccc(CCNC(=O)CNC(=O)c2ccccc2Br)cc1
  x	-2%	-11%[46.1 µM]	x	8%	-4%[46.1 µM]	2%	14%
Fc1ccc(NC(=S)Nc2ccc(Cl)cc2)cc1
  x	-17%	7%[46.1 µM]	x	x	-11%[46.1 µM]	-6%	19%
COc1cc(NS(=O)(=O)c2cccc3nsnc23)c(C(=O)O)cc1OC
  1.9%	2%	10%	-5%	-6%	13%	4%	15%
